Compound activity (PubChem)
HSD17B inh – blocks hydroxysteroid 17-beta dehydrogenase activity; Potency, µM (highest dose often 57.1 µM), for the others: at the top dose activity change, negative = inhibition, actives largely listed as inhibitors; recombinant HSD17B10, NADH fluorescence kinetic; many of its hits are not listed in these tables; 7.6% of 75,000 active; Q99714; active = well fitted inhibition curve with a large enough effect; inconclusive = small, poorly fitted or top-dose-only effect; inactive = no such curve, though single readings can be large or run the other way;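 note: the protocol describes HADH2 (HSD17B10) and not the HSD17B4 of the title; nearly all actives have a fitted effect of over 70% in size; most hits overshoot -100% by far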
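Enzyme plus compound, 15 min room temperature; substrate mix added (NAD+ 1 mM, beta-hydroxybutyryl-CoA 90 uM final); plates read kinetically for NADH fluorescence. HADH2 was His-tagged, E. coli-derived, 20 nM.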
Active calls of the source: *; u = inconclusive; & = joins results of further samples; [ ] = remark or other dose. % is set by controls: 0 for no effect and ±100 for the full control effect; potency is the fitted concentration of half-maximal effect. The list is partial; count on the stated rates, not on these rows.

mol,HSD17B inh
Cc1nc(C)c(C(=O)C2=C(O)C(=O)N(CCN3CCOCC3)C2c2ccco2)s1 (stereo not drawn),-29%
O=c1[nH]c(N2CCc3ccccc32)nc2c1CCCC2,4%
CCOC(=O)C1CCN(C(=O)CCn2c(=O)[nH]c3ccsc3c2=O)CC1,1%
CC(C)NC(=O)CN(C(=O)CCC(=O)Nc1ccccn1)c1ccc(F)c(Cl)c1,6%
CC(C)CCNc1nc2c(c(=O)n(Cc3cccc(F)c3)c(=O)n2C)n1C,-11%
O=C(NCc1cccc2ccccc12)[C@H]1C[C@@H]1[C@H](NP(=O)(c1ccccc1)c1ccccc1)c1ccccc1,-14%
CCOc1ccc(C2=Nn3c(nnc3-c3ccccc3)SC2)cc1Cl,5%
COc1ccc(-c2cnnc(CCCn3ccnc3-c3ccccc3)n2)cc1,1%[11.4 µM]
O=C1NC2C(NC(=O)N2C2CCCCC2)N1C1CCCCC1 (stereo not drawn),6%
COC(=O)C1=C(C)NC2=C(C(=O)CC(c3cccs3)C2)C1c1ccsc1 (stereo not drawn),u
CC(=O)OC1CCC(OC(C)=O)c2c1n([O-])c(C)c(C)[n+]2=O (stereo not drawn),-2%
CCOC(=O)N1CCC(NC(=O)C2CCN(C(=O)N3CC(C)Oc4ccc(C)cc43)CC2)CC1 (stereo not drawn),-2%
CCN1C(=S)SC(=O)C1=C1C=C(C)OC(C)=C1,0%
COCCOC(=O)c1c(C)oc2ccc(OC(=O)c3c(OC)cccc3OC)cc12,-15%
CCN1CCN(C(=O)c2cc3c(s2)-c2ccccc2S(=O)(=O)C3)CC1,-3%
Cc1nn(C(=O)CCCC(=O)n2nc(C)c(Cl)c2C)c(C)c1Cl,3%
COc1ccc(S(=O)(=O)N(CCCN2CCCC2=O)Cc2cc3c(C)cc(C)cc3[nH]c2=O)cc1,3.2µM*
COc1ccc(NC(=O)CN(c2ccc(C)cc2)S(=O)(=O)c2c(C)nn(C)c2C)cc1OC,3%
O=C(Cc1ccsc1-c1ccccc1)NO,-4%
CC(C)Sc1nc2c(c(=O)n1-c1ccc(F)cc1)SCC2,2%
CN(C)c1ccc(-c2nc(NCCN3CCOCC3)c3ccccc3n2)cc1,u
Cc1cccc(-n2c(Cc3cc(=O)[nH]c(=O)[nH]3)nnc2SCC(=O)N2CCCCC2)c1,7%
Cn1c(SCC(=O)Nc2ccccc2-c2ccccc2)nnc1-c1ccco1,-3%
COc1ccc(CNC(=O)CCS(=O)(=O)c2cccc3nonc23)cc1,-10%
Brc1ccc(C2Nc3cccc4cccc(c34)N2)o1,32µM*
CCCc1[nH]nc2c1C1(CCOC1C)C(C#N)=C(N)O2 (stereo not drawn),12%
O=C(Cl)c1ccccc1[N+](=O)[O-],7%
CC(C)(C)n1nnnc1C(c1cccc(C#N)c1)N1CCN2CCCC2C1 (stereo not drawn),9%
COCCn1c(=O)c(-c2ccc(F)cc2)nc2cnc(Oc3ccc(OC)cc3)nc21,u
O=C(N1CCOCC1)N1CCN(C(=O)N(c2ccccc2)c2ccccc2)CC1,4%
Cc1ccc(S(=O)(=O)Nc2ccc(S(=O)(=O)Nc3ncccn3)cc2)cc1,6%
O=C1c2oc3ccc(Cl)cc3c(=O)c2C(c2ccccn2)N1CCCN1CCOCC1 (stereo not drawn),2%
CC(=O)c1c(C)nc(C)nc1NC(=O)Cc1ccccc1,-9%
O=C(Nc1ccc(Cl)cc1F)c1ccc(COc2c(F)c(F)c(F)c(F)c2F)o1,u
O=C(COc1ccccc1Cl)N1CCN(c2ncccn2)CC1,3%
CSc1nc2sc3c(c2c(=O)n1C)CCCC3,-1%
CCn1c(SCc2ccc(C#N)cc2)nnc1-c1ccc(S(=O)(=O)N2CCCCC2)cc1,25µM*
CCNC(=O)C1CN(S(=O)(=O)c2ccccc2)CCN1S(=O)(=O)c1ccccc1 (stereo not drawn),3%
CC(C)Cn1c(N2CCN(C(=O)c3cccs3)CC2)nc2ccccc21,8%
COC(=O)Cn1cc(C(=O)c2ccco2)c2ccccc21,-7%

Random excerpt: 5 records from the list.
mol,HSD17B inh
CCCc1[nH]nc2c1C1(CCOC1C)C(C#N)=C(N)O2 (stereo not drawn),12%
Cc1ccc(S(=O)(=O)Nc2ccc(S(=O)(=O)Nc3ncccn3)cc2)cc1,6%
CSc1nc2sc3c(c2c(=O)n1C)CCCC3,-1%
Brc1ccc(C2Nc3cccc4cccc(c34)N2)o1,32µM*
COC(=O)Cn1cc(C(=O)c2ccco2)c2ccccc21,-7%

(continued)
mol,HSD17B inh
COc1ccc(C(=O)N2CCCC2)cc1S(=O)(=O)N1CCC(C)CC1,0%
Cc1oc(CC(C)C)cc1C(=O)Nc1ccc(C(=O)O)cc1,-3%
Cc1ccc(C(=O)Nc2nc3ccc(S(C)(=O)=O)cc3s2)s1,-26%
COc1cc(CCC(=O)N2CCN(S(=O)(=O)c3ccc(C)c(C)c3)CC2)cc(OC)c1OC,-2%
CCOc1ccc(NC(=O)c2oc3ccccc3c2NC(=O)C(C)C)cc1,32µM*
CC1CCCCN1C(=O)c1ccccc1NC(=O)c1ccco1 (stereo not drawn),-1%
N[C@H](Cc1ccc(O)cc1)C(=O)O,-3%
C/C=C(\C)c1nnc(NC(=O)c2ccco2)s1,-10%
Cc1nc(NC2=NCN(Cc3ccccc3)CN2)nc2ccccc12,-1%
Cc1nc(N2CCN(c3ccccc3)CC2)nc2c1C(=O)CC(C)C2 (stereo not drawn),6%
C=CCOC(=O)C1=C(C)Nc2ncnn2C1c1cc(Br)ccc1F (stereo not drawn),u
N#CC1=C(N)C(C#N)(C#N)[C@H](c2c(F)cccc2F)[C@H]2CC3(CC=C12)OCCO3,22%
CC1=C(C(=O)OCC2CCCO2)C(c2ccc(O)cc2)NC(=O)N1 (stereo not drawn),-1%
CC1=C(C(=O)Nc2cccnc2)C(c2ccc(C(C)C)cc2)n2ncnc2N1 (stereo not drawn),-2%
Cc1cc(S(=O)(=O)N2CCC(NC(=O)C34CC5CC(CC(C5)C3)C4)CC2)ccc1-n1cnnn1,4%
CC(=O)Nc1ccc(NC(=O)CN(c2ccccc2Cl)S(C)(=O)=O)cc1,u
CCCCC(=O)Nc1ccc(C(=O)NCC(=O)OC)cc1,1%
CCCCn1c(-c2ccccc2)nnc1-c1ccccc1,2%
OCC1OC(c2ccc3c(c2)OCO3)C=CC1Oc1ccc(C2CCCC2)cc1 (stereo not drawn),8%[11.4 µM]
CC(=O)OC1c2ccccc2C(=O)N1c1ccccc1C (stereo not drawn),6%

Cc1nc2ccc(S(=O)(=O)N(C)CC(=O)NCc3ccc4c(c3)OCO4)cc2s1
- HSD17B inh: 1%

CCN(CC)CCOc1c(Br)ccc2c1sc1nc3n(c(=O)c12)CCC3
- HSD17B inh: 1%

CCOC(=O)c1c(C)[nH]c(C(=O)COC(=O)CCC(=O)c2ccc3c(c2)OCCO3)c1C
- HSD17B inh: -7%

COC(=O)CN1C(=O)C(O)(CC(=O)c2ccccc2)c2ccccc21 (stereo not drawn)
- HSD17B inh: 0%

Nc1ccc(OCc2ccccc2)cc1
- HSD17B inh: -3%

CCOC(=O)Cc1csc(NC(=O)CSc2ncnc3c2cnn3-c2ccccc2Cl)n1
- HSD17B inh: -3%

CCOC(=O)c1ccccc1NC1c2ccccc2C(=O)N1c1ccc(C)cn1 (stereo not drawn)
- HSD17B inh: u

COc1ccc(-c2csc3ncnc(NCCN4CCOCC4)c23)cc1
- HSD17B inh: 23%

CCN(CC)c1nc2n(c(=S)n1)CCS2
- HSD17B inh: -1%

O=C(O)[C@H]1CN(CCCP(=O)(O)O)CCN1
- HSD17B inh: -7%&-7%

CC(C)NC(=O)N1CC2(CCN(C(=O)c3ccncc3)CC2)C1
- HSD17B inh: 6%

CCOC(=O)CN1C(=O)COc2ccc(C(C)(C)C)cc21
- HSD17B inh: 3%

COC(=O)c1c(NC(=O)Cc2cccs2)sc(C)c1C
- HSD17B inh: -1%

O=S1(=O)C=C(Sc2nc3cc(Cl)ccc3o2)c2ccccc21
- HSD17B inh: u

COc1ccc(N2C(=O)CCC(C(=O)N3CCOCC3)C2c2ccc(F)cc2)cc1 (stereo not drawn)
- HSD17B inh: 17%

Cc1cc(C)c2c(n1)nn1c(C3CC3)cc(C(F)(F)F)nc21
- HSD17B inh: -3%

CCOC(=O)COn1c2c(c3c4no[n+]([O-])c4ccc31)CCCC2
- HSD17B inh: -9%

O=C(NC1CC2CCCC(C1)N2C1CC1)NC12CC3CC(CC(C3)C1)C2 (stereo not drawn)
- HSD17B inh: -2%

COc1ccccc1-c1nc(C#N)c(N2CCc3ccccc3C2)o1
- HSD17B inh: 32µM*

O=C(NCCCN1CCOCC1)c1ccc(Br)s1
- HSD17B inh: 19%

COC(=O)/C=C\CCc1coc(/C=C\CNC(=O)OC)n1
- HSD17B inh: 3%[11.4 µM]

CCOC(=O)C1CCN(CCC(=O)Nc2cccc(Cl)c2)CC1
- HSD17B inh: 5%

Cc1cc(NC(=O)CN2C(=O)C3CC=CCC3C2=O)no1 (stereo not drawn)
- HSD17B inh: 0%

Cc1ccc(S(=O)(=O)c2nc(S(C)(=O)=O)sc2NCC2CCCO2)cc1 (stereo not drawn)
- HSD17B inh: -9%

CC(C)COC(=O)C(N)C(C(=O)OCC(C)C)c1ccccc1 (stereo not drawn)
- HSD17B inh: -1%

Cc1ccc(C(=O)NCCNC(=O)CN2CCOCC2)cc1
- HSD17B inh: -3%

O=C(NCc1cccc(Cl)c1)c1ccco1
- HSD17B inh: -15%

O=C(CN(CCc1ccccc1)C(=O)CNS(=O)(=O)c1ccc(F)cc1)NCC1CCCO1 (stereo not drawn)
- HSD17B inh: 6%

Cn1c(SCC(=O)NC2CCCCC2)nnc1-c1cc2cc(Cl)ccc2o1
- HSD17B inh: -7%

CS(=O)(=O)N1CCc2cc(S(=O)(=O)Nc3ccc4c(c3)OCCO4)ccc21
- HSD17B inh: 3%

O=C(O)COc1ccc2c(c1)OCCO2
- HSD17B inh: 9%

c1ccc2[nH]c(SN3CCOCC3)nc2c1
- HSD17B inh: u

CCOC(=O)c1ccc(NC2c3ncccc3C(=O)N2Cc2ccc(F)cc2)cc1 (stereo not drawn)
- HSD17B inh: -6%

COC(=O)c1cc(S(=O)(=O)N2CCC(C)CC2)ccc1F
- HSD17B inh: 1%

CCN(CCCNC(=O)C1CCN(S(=O)(=O)c2cnc[nH]2)CC1)c1ccccc1
- HSD17B inh: 4%

CCC(C)NC(=O)C(NS(=O)(=O)c1ccc2c(c1)c(=O)n(C)c(=O)n2C)c1ccccc1 (stereo not drawn)
- HSD17B inh: 2%

CCOc1ccc(OCC)c(NC(=O)C2C3C=CC(O3)C2C(=O)NCc2ccco2)c1 (stereo not drawn)
- HSD17B inh: -3%

CC(c1ccccc1)n1cc(C(=O)NCCN2CCOCC2)nn1 (stereo not drawn)
- HSD17B inh: 16%

Cc1c(Cl)cccc1N1CC(C(=O)Nc2nccs2)CC1=O (stereo not drawn)
- HSD17B inh: 0%

COCCCNC(CC(=O)Nc1ccccc1C(=O)OC)C(=O)O (stereo not drawn)
- HSD17B inh: 12%

CC(C(=O)N1CCN(C)CC1)N1C(=O)c2ccccc2C1=O (stereo not drawn)
- HSD17B inh: 8%

CCOC(=O)N1CCC(NC(=O)C2CCN(S(=O)(=O)c3c(C)noc3C)CC2)CC1
- HSD17B inh: 9%

CCC(CC)C(=O)Nc1cccc(C(=O)N2CCOCC2)c1
- HSD17B inh: 1%

COC(=O)c1cc(=O)nc2scc(C)n12
- HSD17B inh: -2%

CCOC(=O)C1Cc2cc3c(cc2C1=O)CC(C(=O)OCC)C3=O (stereo not drawn)
- HSD17B inh: 13µM*

CCCOc1ccc(C(CC(=O)O)NS(=O)(=O)c2ccc(NC(C)=O)cc2)cc1 (stereo not drawn)
- HSD17B inh: -4%

COc1ccc(NC(=O)C2CCN(c3cc(C)nc(-c4ccccc4)n3)CC2)cc1
- HSD17B inh: 11%

CCCCC(O)(C(NC=O)C(=O)OC)C(F)(F)F (stereo not drawn)
- HSD17B inh: 6%

CN(CCc1ccccn1)Cc1ccc(Cl)cc1Cl
- HSD17B inh: 0%

CCCCC(CC)COP(=O)(OCC(CC)CCCC)OCC(CC)CCCC (stereo not drawn)
- HSD17B inh: -5%

CCCN(c1ccc(C(C)C)cc1)S(=O)(=O)c1c(C)noc1C
- HSD17B inh: -6%

O=c1ccnc(SCc2ccc(Cl)cc2)[nH]1
- HSD17B inh: 7%[11.4 µM]

COc1ccc(B(O)O)cc1
- HSD17B inh: 8%

C=CCn1c(=O)c(C(=O)NCCc2ccccc2)c(O)c2ccccc21
- HSD17B inh: -13%

CCOC(=O)C1=C(N)OC2=C(C(=O)CCC2)C1c1cccnc1 (stereo not drawn)
- HSD17B inh: 11%

Cc1noc(C)c1CSc1cc(C)c2ccccc2n1
- HSD17B inh: -9%

CCOC(=O)c1nnn(-c2nonc2N)c1-c1ccccc1
- HSD17B inh: 3%

COc1ccc(OC)c(NS(=O)(=O)c2ccc3c(c2)CCC(=O)N3)c1
- HSD17B inh: -1%

COc1ccc(-n2c(Cc3cccn3C)nnc2SCC(=O)N2CCC(C)CC2)cc1
- HSD17B inh: 6%

O=C(CCCc1nc(-c2ccccc2)no1)Nc1cccnc1
- HSD17B inh: -1%

CCOc1ccccc1N(CC(=O)Nc1ccccc1C(=O)OC)S(C)(=O)=O
- HSD17B inh: -14%

COc1ccc(S(=O)(=O)N(C)CC(=O)Nc2ccccc2C(F)(F)F)cc1
- HSD17B inh: -3%

Entries shown so far with a CF3 group (3):
Cc1cc(C)c2c(n1)nn1c(C3CC3)cc(C(F)(F)F)nc21
- HSD17B inh: -3%

CCCCC(O)(C(NC=O)C(=O)OC)C(F)(F)F (stereo not drawn)
- HSD17B inh: 6%

COc1ccc(S(=O)(=O)N(C)CC(=O)Nc2ccccc2C(F)(F)F)cc1
- HSD17B inh: -3%

Filtered by structure: the entries above with a tert-butyl group.
CC(C)(C)n1nnnc1C(c1cccc(C#N)c1)N1CCN2CCCC2C1 (stereo not drawn)
- HSD17B inh: 9%

CCOC(=O)CN1C(=O)COc2ccc(C(C)(C)C)cc21
- HSD17B inh: 3%
